Screening results (PubChem)
YopH PTP inh – inhibitors of Yersinia enterocolitica YopH tyrosine phosphatase; fluorescence Ex485/Em525; inhibition, %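 (about 10 µM by stock and volumes)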; hit rate 0.16% among 140,000; AID 898;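 active = inhibition of 50% or more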;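 also: controls were vehicle for no effect and minimum signal wells for full effect; inactives centre near -20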
Mtb betalactam – beta-lactam sensitization of Mtb H37Rv; M. tuberculosis H37Rv growth with meropenem, percent inhibition; hits of this screen are not shown here; inhibition, % at 25 µM; hit rate 0.27% among 330,000;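 active = about 74% or more and at least 40 points above the plate without the antibiotic, then above 30% in a dose series; inconclusive = first-round hits that could not be retested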;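 also: growth measured after seven days incubation then overnight dye step; 0% = bacteria only wells and 100% = bacteria with antibiotic; twin plates without the antibiotic show which effects depend on it; some results filed as inactive read as strong as hits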
RecA splice inh – inhibitors of M. tuberculosis RecA intein splicing | P9WHJ3 | cell-free RecA intein splicing, fluorescence | inhibition, %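 (about 9 µM by stock and volumes)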 | hit rate 0.75% among 290,000; in the data active = inhibition above about 30%; inconclusive = no clear call, values can overlap the other calls;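 also: 0% = vehicle wells and 100% = reference inhibitor control wells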
Target sequence (P9WHJ3 whole entry, looked up, canonical isoform): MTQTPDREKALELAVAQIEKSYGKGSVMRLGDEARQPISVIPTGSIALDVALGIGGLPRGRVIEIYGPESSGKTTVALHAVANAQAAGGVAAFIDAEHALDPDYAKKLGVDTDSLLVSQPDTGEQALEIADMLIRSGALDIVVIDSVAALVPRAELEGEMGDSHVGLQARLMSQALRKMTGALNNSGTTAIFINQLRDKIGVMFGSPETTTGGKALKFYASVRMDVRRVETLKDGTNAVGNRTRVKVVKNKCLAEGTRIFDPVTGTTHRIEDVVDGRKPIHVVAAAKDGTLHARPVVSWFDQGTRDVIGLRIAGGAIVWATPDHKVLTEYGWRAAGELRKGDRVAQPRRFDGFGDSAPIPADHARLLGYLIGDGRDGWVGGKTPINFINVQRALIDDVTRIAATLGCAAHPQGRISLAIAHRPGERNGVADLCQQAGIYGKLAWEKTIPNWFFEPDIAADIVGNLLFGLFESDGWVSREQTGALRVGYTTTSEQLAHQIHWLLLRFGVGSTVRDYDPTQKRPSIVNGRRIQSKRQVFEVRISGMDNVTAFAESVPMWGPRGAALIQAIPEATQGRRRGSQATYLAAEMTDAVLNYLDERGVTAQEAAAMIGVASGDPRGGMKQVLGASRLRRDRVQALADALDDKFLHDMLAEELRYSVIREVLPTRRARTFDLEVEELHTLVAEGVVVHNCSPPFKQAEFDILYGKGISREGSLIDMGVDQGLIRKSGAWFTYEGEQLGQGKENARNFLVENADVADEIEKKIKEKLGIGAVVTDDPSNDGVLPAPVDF
Mtb growth – M. tuberculosis H37Rv growth inhibitors, H37Rv strain (AID 1626); M. tuberculosis H37Rv growth inhibition; higher % means a stronger effect; inhibition, % at 10 µM, or IC50 in µM where a hit was titrated; hit rate 0.95% among 220,000;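 active = confirmed in a dose series; inconclusive = inhibition above 80% but not taken into the dose series; inactive = below 80% or under 30% at every dose of the series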;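 also: bacteria incubated seven days before Alamar blue readout; 0% = bacteria only wells and 100% = bacteria with antibiotic wells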
Arbovirus inh – blocks arbovirus infection; arbovirus infection cell-based antiviral screen; inhibition, % at 10 µM; hit rate 0.37% among 200,000;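 active = inhibition from about 30%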;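 also: bluetongue infection of BSR cells; cell survival read as ATP light after 72 h; 0% = infected wells without compound and 100% = uninfected wells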
Arbovirus inh repeat – also measured in Arbovirus inh; calls as there; inhibition, %; measured here: 10K subset replicate screen; many hits read low in the repeat;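 first of two repeat runs on a subset; 0% = infected and 100% = uninfected wells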
Numbers without * were called inactive; ? = inconclusive; . = not tested or not shown. This is a subset; the hit share may differ from the screen's.

SMILES	YopH PTP inh	Mtb betalactam	RecA splice inh	Mtb growth	Arbovirus inh	others
CCN1C(=O)C(CC(=O)Nc2ccc(F)cc2)N(Cc2ccco2)C1=S (stereo not drawn)	.	-9	-1.2	4%	6
CC(=O)Nc1cc[n+](CC(=O)c2cccc([N+](=O)[O-])c2)cc1	.	-11	-0.9	.	.
CCCc1nc(SCC(=O)N2CCCc3ccccc32)c2c(=O)n(C)c(=O)n(C)c2n1	-16	-3	0.5	14%	-47
Brc1ccc(NC(c2ccccc2)c2ccncc2)cc1 (stereo not drawn)	.	0	12	.	.
COc1cccc(-c2noc(C3CCCN(C(=O)CC(C)(C)C)C3)n2)c1 (stereo not drawn)	.	-6	0.8	-1%	-4
O=C(O)CCCCCCC1C(=O)NC(=O)N1CCC(O)C1CCCCC1 (stereo not drawn)	-43	0	1.6	-2%	-3
CC(C)(C)NC(=O)Cn1nnc(-c2cccs2)n1	-22	1	-7.4	4%	1
CNS(=O)(=O)c1ccc(Oc2ccc(S(=O)(=O)NC)cc2)cc1	-22	-5	0.8	0%	2	Arbovirus inh repeat=4
Cn1c(SCc2c(Cl)cccc2Cl)nnc1-c1cccs1	-2	-8	0.2	-4%	1
CCn1c(SCC(=O)Nc2cc(OC)ccc2OC)nc2c(c1=O)SCC2	.	-2	2.1	.	.
CC(=O)Nc1ccc(S(=O)(=O)Nc2cccc(-c3csc(C)n3)c2)cc1	.	7	-2.7	-17%	0
CC(C)(C)NC(=S)N/N=C/c1c(Cl)cccc1Cl	.	2	-1.8	6%	.
N/C(=N\OC(=O)c1cccc(C(F)(F)F)c1)c1cnccn1	.	-19	-0.3	.	.
CCOc1ccc(Cc2c(C)[nH]c3ccc(C(=O)O)cc3c2=S)cc1	.	0	0.4	.	.
COc1ccc(/C=N/NC(=O)c2cc(=O)[nH]c3ccccc23)cc1OC	.	-2	-3.6	-1%	2
CCCC(=O)c1ccc2c(c1)OCCO2	-11	-2	-1.0	-9%	-5
Cc1cc(NC(=O)Cn2nc(C(=O)O)c3ccccc3c2=O)c([N+](=O)[O-])cc1C	.	3	0.3	.	.
CC(C)c1nc(SCC(=O)NC(=O)NC(C)(C)C)n[nH]1	.	3	-0.5	1%	.
COc1cccc(NC(=O)CN(C)C(=O)c2ccc(-c3cccc(C(F)(F)F)c3)o2)c1	.	-1	1.5	.	.
O=C1CC(N2CCN(Cc3ccccc3)CC2)C(=O)N1CCc1ccccc1 (stereo not drawn)	-22	-2	0.3	1%	1
O=C(COc1ccc(Br)cc1)N(Cc1cccs1)C1CCS(=O)(=O)C1 (stereo not drawn)	.	11	-1.0	.	.
COc1cccc(NC(=O)Cn2c(CCC(=O)O)ccc2-c2ccc(Cl)cc2)c1	.	0	1.8	-3%	0
C[N+]1([O-])[C@@H]2Cc3cc4c(cc3[C@@H]1Cc1cc3c(cc12)OCO3)OCO4 (stereo partly drawn)	.	5	2.4	3%	.
O=C(NC1CC2CCCC(C1)N2Cc1ccccc1)c1cccc(F)c1 (stereo not drawn)	.	-20	1.2	.	.
COC(=O)CNC(=O)COC(=O)/C=C/c1ccc2ccccc2n1	.	99	0.2	62%	9
SMILES	YopH PTP inh	Mtb betalactam	RecA splice inh	Mtb growth	Arbovirus inh	others
CC1CCCN(C(=O)Cn2nnc(-c3ccc(S(C)(=O)=O)cc3)n2)C1 (stereo not drawn)	.	-4	1.5	.	.
CC[C@H](C)[C@H](NC(N)=O)C(=O)NCCc1ccc(OC)c(OC)c1	.	-7	3.4	4%	3
CN(Cc1ccccc1)c1ccc(N2C(=O)CCC2=O)cc1[N+](=O)[O-]	.	-7	-0.3	-1%	-3
Cc1csc2ncc(C(=O)N3CCCc4ccccc43)c(=O)n12	-40	-1	7.7	2%	9
COc1ccc(C(OCC(O)CNCCc2ccccc2)c2ccc(OC)cc2)cc1 (stereo not drawn)	.	18	2.4	.	.
COc1ccc(CCNc2ncnc3c2[nH]c2cc(OC)c(OC)cc23)cc1OC	.	5	-2.5	0%	.
COc1ccccc1-c1csc(-n2ncc(C#N)c2N)n1	.	12	6.4	.	.
CN(CC(=O)Nc1ccc(Cl)cc1)C(=O)c1cccc(S(=O)(=O)N(C)C)c1	-22	-4	-1.1	-3%	-10
Cc1ccc(S(=O)(=O)Nc2ccc(-c3nc4cc(NS(=O)(=O)c5ccc(C)cc5)ccc4o3)cc2)cc1	-61	.	.	?	-29
OCCC1CN(Cc2nc3ccccc3s2)CCN1C1CCCC1 (stereo not drawn)	.	-8	-0.2	-4%	4
COc1cccc(CN(C)CC(=O)Nc2ccccc2C(=O)Nc2ccccc2)c1OC	.	-10	0.0	2%	8
CCN(CC)S(=O)(=O)c1ccc2c(c1)[nH]c(=S)n2CC	.	2	1.4	-3%	13
O=C(COC(=O)C1=COCCO1)Nc1ccc2c(c1)OCO2	-17	.	-1.6	6%	6
COc1ccc(C(=O)N2CCN(c3ncccn3)CC2)cc1	.	-12	2.2	.	.
Cc1ccsc1CCNC(=O)C1CCC(=O)N(CCc2cccc(F)c2)C1 (stereo not drawn)	.	2	0.2	.	.
O=c1nc(SCc2ccc(Cl)cc2)nc(-c2ccccc2)[nH]1	.	-3	2.1	-3%	.
CC(C)C[C@H](NC(=O)[C@@H]1Cc2c([nH]c3ccccc23)C2c3ccccc3C(=O)N21)C(=O)N1CCC[C@@H]1C(=O)O (stereo partly drawn)	.	-8	-3.6	.	.
Cc1nnc(NC(=O)CC(NC(=O)C(F)(F)F)c2ccccc2)s1 (stereo not drawn)	-15	0	-1.2	9%	3
COCCN(C(=O)CCC(=O)Nc1ccccn1)C(C(=O)NCCC(C)C)c1ccc(F)cc1 (stereo not drawn)	.	-5	-1.2	.	.
CCCCOC(=O)Nc1sc2c(c1C(=O)OC)CCC2	-16	-10	5.6	-1%	-5	Arbovirus inh repeat=-5
O=S(=O)(NC1CCCC1)OCC(Cl)(Cl)Cl	.	35	-0.4	.	.
CC(/C=N/NC(=O)c1ccccc1F)=C\c1ccccc1	.	-1	4.2	.	.
Cc1nn(C)c(N)c1-c1ccccc1	.	-8	-1.1	-11%	6
CC(=O)Nc1ccccc1-c1nc2cc(C#N)c(C#N)cc2[nH]c1=O	.	6	-1.5	.	.
CCCCS(=O)(=O)N1CCCC(C(=O)Nc2ccc3c(c2)CCC3)C1 (stereo not drawn)	.	0	-0.7	.	.
SMILES	YopH PTP inh	Mtb betalactam	RecA splice inh	Mtb growth	Arbovirus inh	others
CCNC(=S)N(CCc1c(C)[nH]c2ccc(C)cc12)Cc1cc(OC)c(OC)c(OC)c1	-26	2	4.7	.	0
O=[N+]([O-])c1ccccc1S(=O)(=O)Oc1ccccc1/C=N/n1cnnc1	-15	-10	-0.5	1%	3
O=C(O)C1CC=CCC1C(=O)N1CCc2ccccc21 (stereo not drawn)	-10	-6	-1.1	0%	2
Cc1ccc(CN2CCN(Cc3cnc(N(C)C)s3)CC2CCO)o1 (stereo not drawn)	.	0	-1.1	-1%	8
Cc1ccc(Cl)c2c1NC(=O)C2(O)CC(=O)c1ccc(F)cc1 (stereo not drawn)	4	-11	1.5	-7%	3
COC(=O)N[C@H](c1ccccc1)[C@@]1(C)C[C@@H]1[C@@H](C)C(=O)Nc1ccc2ccccc2c1	.	4	7.0	6%	.
CCCOc1ccccc1C1NC(=O)NC(C)=C1C(=O)OCCOC (stereo not drawn)	-2	-16	-1.1	-3%	-1
O=C(O)c1cccc(N2C(=O)c3cccc4cccc(c34)C2=O)c1	.	1	2.6	.	.
CSc1ccc(CN(C)CC(=O)Nc2ccc(C)cc2Br)cc1	-20	8	6.4	5%	0
COc1ccc(CNC(=O)CS(=O)CC(=O)O)cc1OC (stereo not drawn)	.	10	-2.9	2%	8
Cc1cccc(-c2noc(CN(C)C(=O)c3ccc4c(c3)OCO4)n2)c1	.	0	4.0	.	.
CCOC(=O)N1CCC(NC(=O)c2ccc3snnc3c2)CC1	-25	0	0.2	-3%	4	Arbovirus inh repeat=2
ClCC1=Nc2cccc3cccc(c23)N1	.	6	-1.1	5%	.
CCOCCCn1c(-c2ccc(Cl)cc2)n[nH]c1=S	-26	-12	-0.5	3%	0
CCN1CCN(C(=O)c2ccc(CS(=O)(=O)Cc3ccccc3C)o2)CC1	.	-5	3.1	.	.
COC(=O)C1=C(C)NC(=S)NC1c1ccc(-c2ccccc2C(=O)OC)o1 (stereo not drawn)	.	8	1.5	-3%	13
O=C(N/N=C/c1cc(Br)c(O)c(Br)c1)C1CC1	.	10	-0.4	.	.
O=C(NC(=S)N1CCCc2ccccc21)c1ccc(Cl)cc1	-9	-9	.	67%	-7
O=C(NCc1ccncc1)C(=O)Nc1ccc2c(c1)OCO2	.	1	-1.0	-9%	1
Cc1c(Cl)cccc1NC(=O)NCc1ccccn1	.	-13	1.6	.	.
CC(C)c1ccc2nc(SCC(=O)NCC3CCCO3)c(C#N)cc2c1 (stereo not drawn)	.	2	1.0	.	.
CCCCOc1ccc(NC(=O)[C@@H]2CCCN2C(=O)C2CCN(S(=O)(=O)c3ccc(C)cc3)CC2)cc1	-9	89	3.4	47%	-16
CCCOC(=O)c1ccc(O)c(OC)c1	.	-6	-0.6	6%	0
COc1cc(C)nc(Oc2ccc(OCCOc3ccccc3)nn2)n1	.	-1	-1.1	2%	1
CC(=O)Oc1ccc(/C=C2/C(=O)N(c3ccccc3)N=C2C)cc1	.	5	93*	.	.
SMILES	YopH PTP inh	Mtb betalactam	RecA splice inh	Mtb growth	Arbovirus inh	others
COC(=O)c1ccc(/C=N\NC(=O)CC(=O)NCCc2ccccc2)cc1	.	-1	.	0%	2
Cc1cccc(N2CCN(C(=O)c3ccccc3NC(=O)C3=CSCCO3)CC2C)c1 (stereo not drawn)	.	-3	2.7	.	.
CC(C)c1ccc(NC2CCCN(C(=O)c3cnn(C(C)C)c3)C2)cc1 (stereo not drawn)	.	6	-0.6	.	.
Cc1ccccc1OCC(=O)NN1CCN(C)CC1	-23	5	-1.7	-13%	5
COc1ccc(Cn2c(C)c(C)c(C#N)c2NC(=O)Nc2cccc(C)c2)cc1	-2	-9	4.6	-12%	52*
Cc1ccccc1-n1c(-c2csc(C)c2C)n[nH]c1=S	-9	-12	0.6	5%	2
CC(=O)c1cccc(-n2c(CCC(=O)O)ccc2-c2ccccc2)c1	.	-4	4.3	.	.
O=C(NC(=S)Nc1ccccc1N1CCCCC1)c1ccc(F)cc1Cl	.	1	2.3	.	.
COc1cnc(SCCC(F)=C(F)F)[nH]c1=O	.	-4	.	1%	5
Cc1cccc2c(N=O)c(O)n(CCc3ccccc3)c12	.	1	1.8	.	.
CCc1cccc(OCC(=O)Nc2ccc(C)c(S(=O)(=O)N3CCCCCC3)c2)c1	.	-9	3.9	.	.
O=C1Nc2cc(C(=O)N3CCOCC3)ccc2S/C1=C\c1ccccc1	.	9	-2.2	.	.
COc1cc(OC)c(N(C)S(=O)(=O)c2cccc(C(=O)NC3=NCCS3)c2)cc1Cl	.	10	3.1	1%	.
Cc1cc(Cl)ccc1OCCCC(=O)N/N=C/c1cccc([N+](=O)[O-])c1	-29	20	0.2	12%	-8
COc1ccc(NC(=O)NC2CCCc3ccccc32)cc1OC (stereo not drawn)	.	-9	2.3	.	.
Cc1ccc(Nc2cc(C)nc(-c3ccccc3)n2)cc1	.	93	1.7	.	.

Compounds listed so far containing a COOH group, in the order listed:
SMILES	YopH PTP inh	Mtb betalactam	RecA splice inh	Mtb growth	Arbovirus inh	others
O=C(O)CCCCCCC1C(=O)NC(=O)N1CCC(O)C1CCCCC1 (stereo not drawn)	-43	0	1.6	-2%	-3
CCOc1ccc(Cc2c(C)[nH]c3ccc(C(=O)O)cc3c2=S)cc1	.	0	0.4	.	.
Cc1cc(NC(=O)Cn2nc(C(=O)O)c3ccccc3c2=O)c([N+](=O)[O-])cc1C	.	3	0.3	.	.
COc1cccc(NC(=O)Cn2c(CCC(=O)O)ccc2-c2ccc(Cl)cc2)c1	.	0	1.8	-3%	0
CC(C)C[C@H](NC(=O)[C@@H]1Cc2c([nH]c3ccccc23)C2c3ccccc3C(=O)N21)C(=O)N1CCC[C@@H]1C(=O)O (stereo partly drawn)	.	-8	-3.6	.	.
O=C(O)C1CC=CCC1C(=O)N1CCc2ccccc21 (stereo not drawn)	-10	-6	-1.1	0%	2
O=C(O)c1cccc(N2C(=O)c3cccc4cccc(c34)C2=O)c1	.	1	2.6	.	.
COc1ccc(CNC(=O)CS(=O)CC(=O)O)cc1OC (stereo not drawn)	.	10	-2.9	2%	8
CC(=O)c1cccc(-n2c(CCC(=O)O)ccc2-c2ccccc2)c1	.	-4	4.3	.	.

Reprinted at random: 2 compounds from above.
SMILES	YopH PTP inh	Mtb betalactam	RecA splice inh	Mtb growth	Arbovirus inh	others
CC(=O)c1cccc(-n2c(CCC(=O)O)ccc2-c2ccccc2)c1	.	-4	4.3	.	.
COc1cc(OC)c(N(C)S(=O)(=O)c2cccc(C(=O)NC3=NCCS3)c2)cc1Cl	.	10	3.1	1%	.
